Six1-Eya2 blk = blocks human Six1 binding to Eya2 | Q15475+O00167 | AlphaScreen GST-Six1/His-Eya2 binding, biochemical; stronger effect = lower value; control for the full effect not named in the record | activity change, % (test concentration not listed) | hit rate 0.56% among 360,000; in the data active = activity change below about -65%; inconclusive = about -30% to -65%; inactive = above about -30%; note: % is set by controls: 0 for no effect and ±100 for the full control effect; compound concentration not given in the record
Target sequence (O00167 whole entry, looked up): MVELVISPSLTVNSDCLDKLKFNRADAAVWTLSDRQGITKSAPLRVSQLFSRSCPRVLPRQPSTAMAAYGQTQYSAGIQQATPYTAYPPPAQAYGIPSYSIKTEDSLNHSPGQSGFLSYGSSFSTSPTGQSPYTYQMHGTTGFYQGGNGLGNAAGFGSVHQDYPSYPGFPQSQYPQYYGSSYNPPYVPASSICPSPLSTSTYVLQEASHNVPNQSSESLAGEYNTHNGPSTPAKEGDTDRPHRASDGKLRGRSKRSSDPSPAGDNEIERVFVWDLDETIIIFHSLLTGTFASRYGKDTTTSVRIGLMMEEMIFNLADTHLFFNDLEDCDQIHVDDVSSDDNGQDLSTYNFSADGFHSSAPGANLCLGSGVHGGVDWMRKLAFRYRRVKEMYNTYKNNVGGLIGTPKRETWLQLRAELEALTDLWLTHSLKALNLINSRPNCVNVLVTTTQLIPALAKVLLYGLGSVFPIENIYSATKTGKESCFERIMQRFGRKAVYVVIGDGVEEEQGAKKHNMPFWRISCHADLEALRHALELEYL
Target sequence (Q15475 whole entry, looked up): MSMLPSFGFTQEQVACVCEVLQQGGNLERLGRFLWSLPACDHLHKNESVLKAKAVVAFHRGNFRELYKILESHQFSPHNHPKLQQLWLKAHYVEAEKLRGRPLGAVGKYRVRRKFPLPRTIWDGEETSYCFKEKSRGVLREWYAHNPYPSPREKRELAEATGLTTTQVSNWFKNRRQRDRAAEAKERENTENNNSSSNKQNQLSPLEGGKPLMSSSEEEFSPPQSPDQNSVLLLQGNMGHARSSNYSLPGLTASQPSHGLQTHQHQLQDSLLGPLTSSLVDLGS
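Compounds are tested against tagged Six1 and Eya2 proteins bridged by glutathione donor and nickel acceptor beads; after a one-hour incubation at 37 °C without light, AlphaScreen emission is recorded.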
Sfp PPTase inh = inhibitors of Bacillus subtilis Sfp phosphopantetheinyl transferase | Q9F4F7 | Biochemical Sfp PPTase activity, qHTS | Potency, µM, for the others: max response, negative = inhibition, most hits filed as inhibitors | hit rate 3.5% among 310,000 | AID 1490; active = well fitted inhibition curve with a large enough effect; inconclusive = small, poorly fitted or top-dose-only effect, or another doubt; inactive = no such curve, though single readings can be large or run the other way;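 note: the enzyme is Sfp with the accession as filed and its product quenches rhodamine fluorescence; potency is the fitted concentration of half-maximal effect; 0% = enzyme reaction without inhibitor and -100% = no enzyme wells; top concentration of the series not given in the record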
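Fluorescence-quenching assay with 15 nM Sfp, 5 uM rhodamine-CoA and 12.5 uM BHQ-2-labelled ybbR peptide in pH 7.6 Hepes/MgCl2 buffer. Enzyme was pre-incubated with compound for 15 min at room temperature. Rate was taken from the 30-min fluorescence change (525/598 nm).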
D2 agonist = human D2 receptor agonism in beta-arrestin assay; DiscoveRx PathHunter D2 beta-arrestin, luminescence, 90 min; 100% = 57 uM dopamine signal; P14416; activation, % (concentration not given with the values); hit rate 0.084% among 360,000; AID 624465; in the data active = activation above about 40%; inconclusive = about 15% to 40%; inactive = below about 15%; note: compound concentration not given in the record; the text of the record calls up to 30% inactive
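DiscoveRx PathHunter D2 beta-arrestin cells (2,100/well) attached overnight, then compound-stimulated 90 min at 37 C in HBSS/10 mM HEPES/0.1% Tween-20 buffer; beta-galactosidase complementation read by luminescence after 1 h at ambient temperature. Dopamine 57 uM final (EC100) as control.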
TRPV1 PAM = enhances activation of the human vanilloid receptor TRPV1. Q8NER1. TRPV1-expressing cells, Fluo-8 calcium influx, capsaicin EC20 potentiation; host cell line not named in the record; control for the full effect not named in the record. potentiation, % at 8.33 µM. hit rate 0.02% among 320,000; active means potentiation above 80%; inconclusive means 30% to 80%; inactive means below 30%; note: 0% is about no effect
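Fluo-8 calcium influx in TRPV1-expressing cells, kinetic read (ex 480/em 520 nm). Compound added and read 3 min for agonist activity, followed by capsaicin at EC20 final and 2 min further read for enhancement.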
CtBP-E1A blk = blocks the CtBP interaction with E1A; AlphaScreen GST-E1A/His-CtBP binding, 1536-well; stronger effect = lower value; control for the full effect not named in the record; activity change, % (no concentration beside the values); hit rate 0.49% among 340,000; AID 651724; in the data active means activity change below about -65%; inconclusive means about -30% to -65%; inactive means above about -30%; note: % is set by controls: 0 for no effect and ±100 for the full control effect; compound concentration not given in the record
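AlphaScreen with 125 nM GST-E1A and 125 nM His-CtBP (5X stocks) in Tris pH 8.0, 300 mM NaCl, BSA, Tween 20, TCEP. Compounds preincubated 2 h at 37 deg C, then glutathione donor/nickel acceptor beads added for 1 h at 37 deg C in dark.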
PINK1 modulator = modulators of PINK1 expression. PINK1 immunofluorescence, high-content cytometry, 24 h. hit rate 0.2% among 410,000. Potency, µM (series often up to 76.6 µM), inactives show at the top dose activation (PINK1 increase), most hits filed as activators. AID 624263; active = well fitted activation curve with a large enough effect; inconclusive = small, poorly fitted or top-dose-only effect; inactive = flat fitted curve, though single readings scatter; cell line not stated here;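 note: potency is the fitted concentration of half-maximal effect; % of control where 0% means no effect; nearly all actives have a fitted effect of over 65% in size; a mitochondrial uncoupler was the plate control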
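Fluorescence from anti-PINK1 antibody, together with nuclear and cell stains, was scanned on a laser-scanning cytometer. Before staining, stable-line cells were incubated 24 hours with compounds at 5 concentrations; primary antibody 12 h at 10 degrees C.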
D2 PAM = human D2 receptor positive allosteric modulation; P14416; DiscoveRx D2 beta-arrestin cells, luminescence, 90 min; 100% = 57 uM dopamine signal; potentiation, % (concentration not given with the values); hit rate 0.23% among 360,000; active = potentiation of 50% or more; inconclusive = 30% to 50%; inactive = 30% or less;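 note: compound concentration not given in the record; tested on top of an EC20 dose of dopamine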
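PathHunter D2 cells, attached overnight at 37 deg C, received compound in DMSO plus dopamine at EC20 (50 nM final) for 90 min at 37 deg C. Beta-arrestin recruitment was read as luminescence after 1 h with detection reagent at ambient temperature.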
Active calls of the source: *; ? = inconclusive; · = no result given; [ ] = remark or other dose. Compounds as they come; overall some 3.7% were active at least once.

cpd | structure | Six1-Eya2 blk | Sfp PPTase inh | D2 agonist | TRPV1 PAM | CtBP-E1A blk | PINK1 modulator | D2 PAM
1 | C[C@@H]1CN([C@@H](C)CO)C(=O)CCCn2nncc2CO[C@H]1CN(C)C(=O)C1CC1 | 9 | · | -4.9 | · | 3 | -0.2% | 2
2 | CCc1cc2c(COC(=O)c3cc(S(=O)(=O)N4CCOCC4)ccc3F)cc(=O)oc2cc1O | 0 | · | 6.5 | -7 | -5 | 0.1% | 4
3 | COc1cccc(NC(=O)CSc2nccn2-c2cccc(OC)c2)c1 | -13 | 13% | -3.1 | -10 | -13 | 1.0% | -34
4 | Cc1nn2cc(-c3ccccc3)nc2s1 | 19 | 16% | -0.1 | 2 | 55 | 5.1%[38.3 µM] | -11
5 | CC12CCC(C(=O)O)(c3nc(C#N)c(C#N)nc31)C2(C)C (stereo not given) | 0 | 0% | 1.5 | ? | 8 | 6.0%[38.3 µM] | -11
6 | COc1cccc(C(=O)Oc2cc(C)[nH]c(=O)c2[N+](=O)[O-])c1OC | 7 | 8% | -5.3 | 6 | 3 | 0.2% | 5
7 | CC12CCCCN1CCCc1c2[nH]c2ccccc12 (stereo not given) | -1 | 15% | -0.4 | -16 | 14 | · | -4
8 | Cc1nnc(NC(=O)c2ccc(S(=O)(=O)N3CCCCC3)cc2)s1 | 5 | · | 2.0 | · | 0 | 2.5% | -1
9 | COc1ccc(-c2cc(C(=O)Nc3cccc(O)c3)no2)cc1 | -6 | 16% | -2.9 | 23 | -4 | 1.0% | -3
10 | C[C@@H]1CN([C@@H](C)CO)C(=O)c2cc(NC(=O)Nc3ccccc3)ccc2O[C@H]1CN(C)C(=O)Nc1cccc2ccccc12 | -16 | · | 3.3 | · | -6 | 0.4% | 6
11 | Cc1ccc2c(CC(=O)Nc3nc(C)cs3)coc2c1 | -10 | -14% | -2.1 | 2 | -2 | 4.2% | 4
12 | O=C(Cn1ccc2ccccc2c1=O)N1CCN(Cc2ccc3c(c2)OCO3)CC1 | -3 | 5% | -3.6 | -4 | -2 | 1.0% | -4
13 | Cc1ccc(O)c(NC(=O)c2cc(-c3ccccc3)on2)c1 | 13 | 9% | -0.1 | -14 | 9 | 6.5% | 2
14 | CCc1ccc(NC(=O)Cc2ccc(NC3=NC4CS(=O)(=O)CC4S3)cc2)cc1 (stereo not given) | -1 | 8% | 4.5 | -19 | 5 | 0.0% | -6
15 | C#CCOc1nc(OCC#C)nc(OCC#C)n1 | 10 | 14% | -1.1 | 6 | 3 | 0.4% | 4
16 | O=[N+]([O-])c1ccc(C=Nc2ccc(Cl)cc2Cl)s1 | -73* | -1% | 1.0 | 1 | ? | -5.9%[38.3 µM] | 0
17 | O=C(CSc1nnnn1C1CC1)N1CCN(c2ccc(O)cc2)CC1 | 11 | · | 2.6 | -7 | · | 4.0% | 15
18 | Cc1ccc(NS(=O)(=O)c2ccc3c(c2)n(C)c(=O)n3C)cc1 | -15 | 9% | -6.6 | -3 | 5 | 3.5% | -8
19 | CCc1c(C)nc2c(-c3ccccc3)c(-c3ccccc3)[nH]n2c1=O | 3 | 7% | -6.0 | 0 | -3 | ? | -3
20 | CCOC(=O)C1C(c2ccccc2)C(C(=O)OCC)S(=O)(=O)C(CCN(CC)CC)S1(=O)=O (stereo not given) | 1 | 12% | -0.8 | 1 | 1 | -3.0% | -8
21 | COc1cc(C(=O)N(C)C2CCCCC2)ccc1OC1CCN(C(C)=O)CC1 | 4 | -1% | -3.7 | 1 | 2 | 0.7% | -1
22 | O=C(Nc1ccc(S(=O)(=O)NC2=NCCCCC2)cc1)c1ccccc1Cl | 0 | 14% | 1.3 | 1 | 3 | 4.6% | -6
23 | O=C1[C@@H]2CSCN2C(=O)CN1Cc1ccccc1F | -4 | 18% | -6.1 | 9 | 8 | 2.3% | 0
24 | Cc1ccc(OCC(=O)Nc2cc(S(=O)(=O)N3CCOCC3)ccc2N2CCCC2)cc1 | 0 | · | 2.8 | 4 | -2 | 2.8% | -2

Some of the entries so far, with two lines to a compound:
The line under a structure holds: Six1-Eya2 blk	Sfp PPTase inh	D2 agonist	TRPV1 PAM	CtBP-E1A blk	PINK1 modulator	D2 PAM
22: O=C(Nc1ccc(S(=O)(=O)NC2=NCCCCC2)cc1)c1ccccc1Cl
 : 0	14%	1.3	1	3	4.6%	-6
23: O=C1[C@@H]2CSCN2C(=O)CN1Cc1ccccc1F
 : -4	18%	-6.1	9	8	2.3%	0

Going on with the list.
cpd | structure | Six1-Eya2 blk | Sfp PPTase inh | D2 agonist | TRPV1 PAM | CtBP-E1A blk | PINK1 modulator | D2 PAM
25 | O=C(O)CC(c1ccc(C(F)(F)F)cc1)N1Cc2ccccc2C1=O (stereo not given) | 0 | 10% | 1.9 | 7 | · | 0.4% | -9
26 | CN(C)C(CNC(=O)CCc1nc2sc3c(c2c(=O)[nH]1)CCCC3)c1ccccc1 (stereo not given) | 8 | · | -1.7 | 0 | -1 | -0.8% | -22
27 | O=C(c1cccc(C(F)(F)F)c1)N1CCN(CCc2ccccc2)CC1 | -7 | 11% | -4.8 | -28 | 1 | 2.4% | -27
28 | COc1ccc(C)cc1-n1c(N)c(C#N)c(C#N)c1-c1ccc(OC)c(OC)c1OC | -15 | 6% | -0.3 | -4 | -14 | -1.4% | 22
29 | COc1cc(C(=O)NN=Cc2ccc(N(C)C)cc2)cc(OC)c1OC | -9 | · | -7.9 | · | 2 | 6.3% | -12
30 | CCc1cccc(C)c1N(C(=O)Cn1c(CO)nc2ccccc21)C(C)COC (stereo not given) | -3 | 0% | -5.2 | -3 | 0 | -0.3% | -20
31 | CC(C)(C)C(=O)OCc1ccc(C2=CC(=O)CC(C)(C)C2=O)cc1 | -12 | · | -9.5 | · | 0 | 2.4% | 1
32 | O=C(O)C1CC=CCC1C(=O)N1CCN(c2nc(-c3ccccc3)c3ccccc3n2)CC1 (stereo not given) | 15 | 1% | -5.3 | -6 | 1 | 2.9% | -42
33 | Cc1ccc(F)c(S(=O)(=O)NC(=O)C2(C)CCN2C(=O)c2ccco2)c1 (stereo not given) | 1 | · | -2.9 | · | 9 | 0.9% | -6
34 | O=[N+]([O-])c1ccc(N2CCN(Cc3ccc4c(c3)OCO4)CC2)nc1 | -17 | 10% | 5.2 | -19 | -13 | 1.2% | -16
35 | Cc1cccc(/C=C2\Sc3ccc(C(=O)N4CCC(C)CC4)cc3N(C)C2=O)c1 | -6 | -18% | -6.8 | ? | -4 | 7.5% | -17
36 | O=C(Nc1cccnc1)c1ccc(F)c(S(=O)(=O)N2CCOCC2)c1 | 2 | 5% | -0.2 | 29 | 19 | 1.9% | -6
37 | COC(=O)c1scc(C)c1NC(=O)Nc1ccccc1 | -1 | 9% | -4.1 | -1 | 1 | 0.3% | -36
38 | COC(=O)c1ccc(S(=O)(=O)N2C3CCC2CC(NC(=O)C2CC2)C3)cc1 (stereo not given) | 0 | 4% | -1.8 | 15 | 9 | · | -13
39 | Cc1cccc(NC(=S)NNC(=O)CC(C)O)c1C (stereo not given) | 9 | 22% | 1.6 | 1 | -3 | 1.6% | 10
40 | Cc1ccc(CSCC(=O)N(C)CC(=O)Nc2c(Cl)cccc2Cl)cc1 | -3 | · | -4.6 | -22 | 7 | 6.5% | 10
41 | CC(OC(=O)C1CCN(S(=O)(=O)c2ccc(F)cc2)CC1)C(=O)NC1CCCCC1C (stereo not given) | 0 | · | 0.8 | 19 | 3 | -3.2% | 4
42 | O=C(NCCc1ccc(O)cc1)c1[nH]c(C(F)(F)F)nc1-c1ccccc1 | -13 | · | -1.8 | · | -6 | 0.6% | -5
43 | NC(=O)c1ccc(Oc2ccc(-c3nnco3)cc2)c([N+](=O)[O-])c1 | -2 | -1% | 0.3 | 29 | 2 | 0.1% | -10
44 | COCCC(=O)N1CCC(Oc2ccc(C(=O)NCc3nccn3C)cc2)CC1 | -1 | 9% | -5.4 | 4 | -2 | 0.9% | 4
45 | NS(=O)(=O)c1ccc(NC=C2C(=O)OC3(CCCCC3)OC2=O)cc1 | 4 | 6% | -1.3 | 0 | -20 | 1.6% | -10
46 | COc1cccc(-c2cc(C(=O)Nc3ccc(N(C)C(C)=O)cc3)c3cc(Br)ccc3n2)c1 | -2 | · | -7.6 | · | · | 0.2% | 7
47 | Clc1ccc(CNC2CCCC2)cc1 | 4 | 12% | 1.6 | -2 | 13 | · | -14
48 | Cc1nc2ccccc2c(=O)n1CCc1ccccc1 | 0 | 4% | -8.3 | ? | -1 | 0.4% | -5
49 | O=C(CCNC(=O)c1ccccc1)Oc1ccc([N+](=O)[O-])cc1 | -27 | -9% | -5.8 | -13 | 5 | 3.4% | -20
50 | O=C(C1CCC1)N1CCc2cc(S(=O)(=O)NCC3COc4ccccc4O3)ccc21 (stereo not given) | -3 | 8% | 0.5 | -7 | -3 | -0.7% | 1
51 | COc1cc([N+](=O)[O-])ccc1-c1ccc(/C=N/NC(N)=O)o1 | 4 | -4% | -3.7 | -13 | 5 | ? | -2
52 | Cc1ccc(C(=O)CC2(O)C(=O)N(C)c3ccccc32)o1 (stereo not given) | 4 | -2% | -0.8 | -4 | 5 | 1.7% | 0
53 | O=C(NCc1ccco1)c1cc(-c2ccc3c(c2)OCO3)on1 | 2 | -12% | -2.8 | -14 | 4 | ? | -10
54 | CC(=O)N1CCN(S(=O)(=O)c2cccc(C(=O)NNC(=O)COc3ccc(Cl)cc3C)c2)CC1 | -12 | · | -0.8 | 4 | -1 | 0.2% | -8
55 | FC(F)(F)c1ccccc1Cc1c(-c2ccccc2)nc2ccc(Br)cn12 | 5 | · | -3.0 | · | 2 | 6.8% | -4
56 | CC1Nc2ncnc(N3CCOCC3)c2N(Cc2ccc(Cl)cc2)C1=O (stereo not given) | 14 | · | -3.8 | -12 | -2 | 5.0% | 0
57 | O=S1(=O)N=C2CCCCCN2C(c2ccccc2)N1 (stereo not given) | 4 | 15% | 3.5 | -2 | · | -0.2% | -10
58 | COC(=O)c1c(NC(=O)CCS(=O)(=O)c2ccccc2)sc2c1CCN(C)C2 | 1 | -1% | -4.5 | 12 | -1 | 1.0% | -10
59 | O=C(NC(=S)Nc1ccc(Cl)cn1)C(c1ccccc1)c1ccccc1 | -5 | 38%[activator] | -3.6 | -24 | -5 | 19% | -17
60 | COc1ccc(OC)c(NC(=O)N2CCCC(C(=O)c3ccccc3OC)C2)c1 (stereo not given) | -3 | -3% | -3.6 | -3 | -7 | 1.3% | -7

Screening data as filed in PubChem.
